CBX7 AlphaScr: blocks human CBX7 binding to H3K27me3 peptide; O95931; AlphaScreen His6-CBX7 / biotin-H3K27me3 peptide binding; stronger effect = lower value; normalised signal (fraction of DMSO) (test concentration not listed); 1.1% of 66,000 active; in the data active = normalised signal below about 0.5;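 also: 100 nL library stock added to about 20 µL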
Target sequence (O95931 whole entry, looked up): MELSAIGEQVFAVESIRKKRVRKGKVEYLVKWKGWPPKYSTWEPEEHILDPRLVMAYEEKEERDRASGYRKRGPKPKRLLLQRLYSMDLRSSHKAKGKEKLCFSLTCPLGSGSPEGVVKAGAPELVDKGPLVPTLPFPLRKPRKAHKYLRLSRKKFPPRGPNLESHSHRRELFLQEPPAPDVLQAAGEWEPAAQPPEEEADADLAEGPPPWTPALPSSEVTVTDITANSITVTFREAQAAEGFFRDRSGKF
CBX7 AlphaScr z-score: recorded beside CBX7 AlphaScr, whose call it bears; z-score; measured here: z-score of CBX7 signal; some inactives read as strong as hits; reference of the scale not given here;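 same signal on another scale; lower means less binding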
Starred values were filed as active, the others as inactive. Only part of the results is shown; count on the stated rates, not on these rows.

SMILES	CBX7 AlphaScr	CBX7 AlphaScr z-score
CCN(CC)S(=O)(=O)c1ccc2c(c1)N(CC(=O)NCC(C)c1ccccc1)C(=O)CS2 (stereo not given)	0.98	-0.73
Cc1ccc(CNC(=O)c2nc(-c3cccc(C)c3)oc2C)cc1	0.87	-1.8
Cc1ccc(NC(=O)c2cnc3sccn3c2=O)cc1	0.76	-2.8
COc1ccc(OC)c(-c2cc(C(=O)N3CCCc4ccccc43)no2)c1	0.94	-0.46
COc1ccc(-n2nnc3c(=O)n(CC(=O)Nc4ccc(NC(C)=O)cc4)cnc32)cc1	1	0.95
O=C(CN1C(=O)CSc2ccccc21)NCCN1CCN(Cc2ccccc2)CC1	0.96	-0.36
CC(=O)Nc1ccc(NC(=O)CN(C)S(=O)(=O)c2ccc3c(c2)CCC(=O)N3)cc1	0.97	-0.65
Cc1onc(-c2ccccc2Cl)c1C(=O)Nc1ccc(S(=O)(=O)Nc2ncccn2)cc1	0.97	-0.73
O=C(Cc1ccccc1)Nc1nnc(CCc2ccccc2)s1	0.96	-0.88
Cc1oc(-c2cccc(Cl)c2)nc1CN1CCCC(C(=O)NCCC(C)C)C1 (stereo not given)	1	0.46
CCn1ncc(C(=O)Nc2ccc(S(=O)(=O)Nc3ncccn3)cc2)c1C	1	-0.059
O=C(NCCCc1ccccc1)c1cc2ccccn2n1	1.2	1.4
COc1ccc(OCC(=O)Nc2ncc(Cc3ccc(Br)cc3)s2)cc1	1	0.055
Cc1ccc(S(=O)(=O)c2cn(CC(=O)Nc3ccc(C)c(Cl)c3)c3ccc(C)cc3c2=O)cc1	0.89	-3.6
CCc1cccc(NC(=O)CCc2nc3ccccc3[nH]2)c1	1	0.57
COc1cccc(CNc2sc3c(c2C(=O)Nc2cc(OC)ccc2OC)CCC3)c1	0.86	-1.5
COc1ccc(CCN2CC34C=CC(O3)C(C(=O)NCc3ccccc3Cl)C4C2=O)cc1OC (stereo not given)	0.99	-0.3
CCc1ccccc1NC(=O)CSc1nc2c(c(=O)[nH]1)CCC2	0.91	-1.1
CCC(=O)NCCCc1nc2ccccc2n1Cc1cc(C)ccc1C	1.1	1.3
Cc1cc(C)cc(-n2c(C)nc3cc(C(=O)NC4CCCCCC4)ccc32)c1	0.97	-0.32
CC(=O)Nc1ccccc1-c1nc2ccc(C(=O)N3CCN(c4cccc(C)c4C)CC3)cc2[nH]c1=O	1	0.39
COc1ccc(CC(=O)N2CC(=O)Nc3ccc(Br)cc3C2c2ccccc2)cc1 (stereo not given)	0.76	-2.3
Cc1nnn(C23C[C@@H]4C[C@@H](CC(CC(=O)Nc5ccc(Br)c(C)c5)(C4)C2)C3)n1	0.95	-0.7
COc1ccc(-c2cc(C(=O)N3CCOCC3)no2)cc1	1	0.081
CC(C)(C)OC(=O)N1CCN(c2nc(-c3ccccc3)c3cc([N+](=O)[O-])ccc3n2)CC1	1.1	0.34
(further entries)
SMILES	CBX7 AlphaScr	CBX7 AlphaScr z-score
COc1ccc(CCC(=O)Nc2ccc3nc(N4CCN(c5ncccn5)CC4)cc(C)c3c2)cc1	1	0.042
COc1ccc(NC(=O)CC2Oc3ccc(C)cc3NC2=O)cc1Cl (stereo not given)	1.1	2
COc1ccc(C(=O)N2CC(=O)Nc3ccc(C)cc3C2c2ccccc2)c(OC)c1 (stereo not given)	0.85	-0.2
Cc1ccc(-c2[nH]c(-c3ccc(F)cc3)nc2SCC(=O)Nc2ccc3c(c2)OCO3)cc1	0.94	-1.6
COc1ccc(Cn2c(=O)[nH]c3cc(C(=O)N4CCc5ccccc5C4)ccc3c2=O)cc1	0.91	-2.2
Cc1nc2cc(-c3ccc(Cl)cc3)nn2c(C)c1CCC(=O)N1CCCCC1	1	0.28
COc1cccc(C(=O)Nc2ccc(O)c(-c3nc4ccccc4s3)c2)c1	1.1	4.5
Cc1c(C(=O)Nc2ccc(F)cc2F)sc2ncn(Cc3ccccc3Cl)c(=O)c12	1.1	0.65
CCCN1CCOC(CC(=O)Nc2ccc([N+](=O)[O-])cc2)C1=O (stereo not given)	0.85	-2.2
CCC(=O)N1CCc2cc(S(=O)(=O)NCc3ccc4c(c3)OCO4)ccc21	0.82	-0.72
CCCCNC(=O)c1cc(Sc2ccc(Cl)cc2)nc2ccccc12	1	-0.1
Cc1ccc(NC(=O)CN2C(=O)c3ccccc3Sc3ccc(C(=O)N4CCCC4)cc32)cc1F	0.97	-0.77
COCCNC(=O)CN1C(=O)COc2ccc(S(=O)(=O)N3CCC(C)CC3)cc21	0.88	-1.8
COc1nnc(-c2ccc(N3CCOCC3)c(NC(=O)c3ccccc3Cl)c2)c2ccccc12	1.1	2.2
CC(C)c1ccc(NC(=O)Nc2ccc3snnc3c2)cc1	1	1.6
CC1CC(C)CN(C(=O)COc2ccc3c(c2)C(=O)CC(C)(C)O3)C1 (stereo not given)	1.1	0.75
Cc1nnc(Sc2cc(C(=O)NCc3cccnc3)c3ccccc3n2)s1	1.1	1.4
FC(F)(F)c1cc(-c2ccc(Br)cc2)nc2c(-c3ccccc3)cnn12	0.78	-4.2
O=C(NCc1ccc(Cl)cc1)C1CCCN(S(=O)(=O)c2cccs2)C1 (stereo not given)	1	1.7
CC1c2nc3ccccc3n2C(CC(=O)NCCN2CCOCC2)C(=O)N1Cc1ccccc1 (stereo not given)	1	0.17
Nc1c2c(nc3sc4c(c13)CCCCC4)CCCCC2	0.95	-0.64
CCC1=Nc2cc(C(=O)O)ccc2Sc2ccc(Br)cc21	0.99	-0.27
O=C(Nc1c(-c2ccc(F)cc2)nc2ccccn12)c1ccc2c(c1)OCO2	1	0.34
CCOC(=O)c1c(NC(=O)c2cccc(OC(C)C)c2)sc2c1CCCC2	1.3	11
CC(=O)N1c2ccc(S(=O)(=O)Nc3cccc(C)c3)cc2CC1C (stereo not given)	0.94	-0.22
(listing goes on)
SMILES	CBX7 AlphaScr	CBX7 AlphaScr z-score
CCN(C(=O)Cn1nc(Cc2ccncc2)c2ccccc2c1=O)c1cccc(Cl)c1	0.97	-1.5
Fc1cnc(Nc2cccc(Cl)c2)nc1Nc1cccc(Cl)c1	0.92	-1.7
CCCN1Cc2cccc(C(=O)Nc3ccc(N4CCN(CC)CC4)cc3)c2C1=O	0.97	-0.025
COc1ccc(Cl)cc1NC(=O)c1noc2c1CCCC2	1.1	0.25
Cc1cc(=O)n2nc(N3CCCC(C(=O)N4CCC5(CC4)OCCO5)C3)sc2n1 (stereo not given)	1.1	1.1
CN1CCC(O)(C#CCOc2ccccc2Cl)CC1	1	1.4
Cc1ccc2cc(CCNC(=O)Cc3ccc(F)cc3)c(=O)[nH]c2c1	1.2	2.2
CCc1ccc(-c2nc3cc(NC(=O)c4ccccc4F)ccc3o2)cc1	1.1	1.3
CCOc1ccc2c(c1)c(=O)c(S(=O)(=O)c1ccccc1)cn2CC(=O)Nc1cccc(C)c1	0.86	-2.3
COc1ccc(-c2nc(CSCC(=O)NCc3ccc4c(c3)OCO4)c(C)o2)cc1	0.99	-0.16
CCN(CC)S(=O)(=O)c1ccc2c(c1)N(CC(=O)NCc1ccc3c(c1)OCO3)C(=O)CS2	1	0.35
COc1cc(OC)cc(-c2nc(-c3cccc(C)c3)no2)c1	1.9	1
Fc1ccc(Nc2cccc3nonc23)cc1	1.5	14
O=C(c1ccccc1)c1c(Nc2ccc(Cl)cc2)[nH]c(=O)c2ccccc12	0.91	-1.1
CCN1CCN(CCNc2cc(C)nc3c(-c4ccc(OC)c(OC)c4)c(C)nn23)CC1	0.94	-1.6
CCCCNC(=O)c1ccc2c(c1)N(Cc1ccccc1F)C(=O)c1ccccc1S2(=O)=O	0.94	-1.4
CCC(C)NC(=O)c1cc(Nc2ccc(OC)cc2OC)nc2ccccc12 (stereo not given)	0.82	-2.7
O=C(NCCCN1CCOCC1)c1csc2c1CCCC2	0.98	-0.54
O=C(Cn1ncc2c1-c1ccccc1OC2)Nc1ccc(F)c(Cl)c1	0.93	-1.1
COc1ccc(OC)c(C2=NOC(C(=O)N3CCCc4ccccc43)C2)c1 (stereo not given)	0.67	-5.9
O=C(NCc1cccnc1)C1CC(c2ccc(F)cc2)=NO1 (stereo not given)	1.1	3.1
COc1cccc(NC(=O)CCc2nc(-c3ccccc3F)no2)c1	1	0.89
Cc1oc(-c2ccc(Cl)cc2)nc1CN1CCC(C(=O)NC2CCC(C)CC2)CC1 (stereo not given)	0.99	-0.2
Cc1ccc(-n2c(C)nc3c(cnn3-c3ccc(F)cc3)c2=O)cc1C	1.1	1
CC1CCCCN1CCNC(=O)c1cc2c(s1)-c1ccccc1OC2 (stereo not given)	1.7	10
Following part:
SMILES	CBX7 AlphaScr	CBX7 AlphaScr z-score
Cc1ccc(Nc2ncc(C(=O)N3CCN(c4ccccc4F)CC3)c3ccccc23)cc1Cl	1.3	7.9
Fc1ccccc1-c1nc(N2CCN(c3ccccc3F)CC2)c2ccccc2n1	1	0.039
O=C1CN(C(=O)C2CCCCC2)C(c2ccc(F)cc2)c2cc(Br)ccc2N1 (stereo not given)	0.89	-2.2
CCOC(=O)c1ccc(NC(=O)c2cccc3c2C(=O)N(CCOC)C3)cc1	1.1	0.1
OCCN(CCO)c1ncnc2c1cnn2-c1ccc(Cl)cc1	0.88	-1.9
CCC(=O)N1CCc2cc(S(=O)(=O)NCC3COc4ccccc4O3)ccc21 (stereo not given)	1.2	3.3
O=C(Cc1ccc(NC2=NC3CS(=O)(=O)CC3S2)cc1)N1CCN(c2ccc(F)cc2)CC1 (stereo not given)	1	0.81
Cc1cccc(CCNC(=O)C(C)C2Sc3ccccc3N(Cc3ccc(F)cc3Cl)C2=O)c1 (stereo not given)	1	0.42
CCc1ccc(NS(=O)(=O)c2ccc3[nH]cc(C(=O)NCc4ccc(OC)cc4)c(=O)c3c2)cc1	1	0.2
O=C1CCCc2c1cc(C(=O)NCCCO)c(=O)n2-c1ccccc1	0.98	-0.55
CCN(C(=O)Cn1nc(Cc2ccncc2)c2ccccc2c1=O)c1cccc(C(F)(F)F)c1	1	1.8
CCC(=O)N1CCc2cc(S(=O)(=O)NCCC(=O)Nc3ccc(Br)cc3C)ccc21	0.97	-0.38
N#Cc1cnc(Nc2nc3ccccc3s2)nc1-c1ccc(Cl)cc1	1.1	1.5
CC1CCCN(S(=O)(=O)c2ccc3[nH]c(=O)cc(C(=O)NCCCN4CCCCC4C)c3c2)C1 (stereo not given)	0.93	-1
Cc1noc(C)c1S(=O)(=O)N1CCC(C(=O)NCCc2ccccc2)CC1	0.97	-1.2
CC(CCc1ccccc1)NC(=O)C1CCN(C(=O)c2sccc2-n2cccc2)CC1 (stereo not given)	0.97	-0.67
COc1ccc(Cl)cc1C(=O)NCCc1c(C)[nH]c2ccccc12	0.94	-1.5
COc1cccc(CNS(=O)(=O)c2cc(Br)cc3c2N(C(=O)C2CC2)CC3)c1	1	0.65
O=C(NCc1ccc(F)cc1)c1ccc(CNc2c(N3CCOCC3)c(=O)c2=O)cc1	1.3	1.9
Cc1cc(N2CCOCC2)nc2ccc(NC(=O)COc3ccc(Cl)cc3)cc12	1.1	2.9
CCN(CC)S(=O)(=O)c1ccc2c(c1)N(CC(=O)N1CCCCC1)C(=O)CO2	1	-0.0043
O=C(C1CC1)N1CCc2cc(S(=O)(=O)NCc3ccccc3)ccc21	1	0.25
COc1ccc2c(c1)CCc1sc(NC(=O)c3cccc(C)c3)nc1-2	1.2	2.8
O=C(CSc1nnnn1C1CCCCC1)Nc1ccc(F)cc1	1	0.48
Cc1ccc(NC(=O)Cc2nn(C)c(=O)c3ccccc23)cc1F	0.94	-0.79

A run of entries taken from the entries so far, for reference:
SMILES	CBX7 AlphaScr	CBX7 AlphaScr z-score
CCN(C(=O)Cn1nc(Cc2ccncc2)c2ccccc2c1=O)c1cccc(C(F)(F)F)c1	1	1.8
CCC(=O)N1CCc2cc(S(=O)(=O)NCCC(=O)Nc3ccc(Br)cc3C)ccc21	0.97	-0.38
N#Cc1cnc(Nc2nc3ccccc3s2)nc1-c1ccc(Cl)cc1	1.1	1.5
CC1CCCN(S(=O)(=O)c2ccc3[nH]c(=O)cc(C(=O)NCCCN4CCCCC4C)c3c2)C1 (stereo not given)	0.93	-1
Cc1noc(C)c1S(=O)(=O)N1CCC(C(=O)NCCc2ccccc2)CC1	0.97	-1.2
CC(CCc1ccccc1)NC(=O)C1CCN(C(=O)c2sccc2-n2cccc2)CC1 (stereo not given)	0.97	-0.67
COc1ccc(Cl)cc1C(=O)NCCc1c(C)[nH]c2ccccc12	0.94	-1.5
COc1cccc(CNS(=O)(=O)c2cc(Br)cc3c2N(C(=O)C2CC2)CC3)c1	1	0.65
O=C(NCc1ccc(F)cc1)c1ccc(CNc2c(N3CCOCC3)c(=O)c2=O)cc1	1.3	1.9
Cc1cc(N2CCOCC2)nc2ccc(NC(=O)COc3ccc(Cl)cc3)cc12	1.1	2.9
CCN(CC)S(=O)(=O)c1ccc2c(c1)N(CC(=O)N1CCCCC1)C(=O)CO2	1	-0.0043
O=C(C1CC1)N1CCc2cc(S(=O)(=O)NCc3ccccc3)ccc21	1	0.25
COc1ccc2c(c1)CCc1sc(NC(=O)c3cccc(C)c3)nc1-2	1.2	2.8
O=C(CSc1nnnn1C1CCCCC1)Nc1ccc(F)cc1	1	0.48
Cc1ccc(NC(=O)Cc2nn(C)c(=O)c3ccccc23)cc1F	0.94	-0.79

Remaining list, next part.
SMILES	CBX7 AlphaScr	CBX7 AlphaScr z-score
Cc1ccc(-c2nnc(Nc3ccccc3)c3ccccc23)cc1S(=O)(=O)NCC1CCCO1 (stereo not given)	0.88	-0.14
CCOC(=O)N1CCC(NC(=O)c2ccc3c(c2)N=C(C)c2ccccc2S3)CC1	1.1	1.4
CCCN1Cc2cccc(C(=O)Nc3c(C)cc(C)cc3C)c2C1=O	0.9	-1.3
COc1cccc(CNC(=O)C2CCN(S(=O)(=O)c3cccc4cccnc34)CC2)c1	0.98	-0.22
Cc1oc(-c2cccc(F)c2)nc1CSCC(=O)Nc1ccccc1F	0.98	-0.49
CS(=O)(=O)c1ccc2nc(NC(=O)c3cc4ccccc4o3)sc2c1	0.99	-0.41

Screening results deposited in PubChem by several laboratories.
